KCNQ2 pot: KCNQ2 (rat) channel potentiation | O88943 | CHO-K1 KCNQ2, FluxOR thallium flux fluorescence; hits give high values | B-score at 10 µM | 0.54% of 310,000 active | AID 2239;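 active = fluorescence ratio B-score at least 3 SD of library B-scores, with initial fluorescence B-score within 3 SD, cut at about 5.3 in these data; same plate scores as AID 2156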;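 also: B-score of peak minus minimum over baseline fluorescence ratio after K+ and Tl+ stimulus; positive B-score means potentiation of KCNQ2 with more thallium influx and brighter signal; only the inactives scoring about 0 or higher are listed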
Target sequence (O88943 whole entry, looked up): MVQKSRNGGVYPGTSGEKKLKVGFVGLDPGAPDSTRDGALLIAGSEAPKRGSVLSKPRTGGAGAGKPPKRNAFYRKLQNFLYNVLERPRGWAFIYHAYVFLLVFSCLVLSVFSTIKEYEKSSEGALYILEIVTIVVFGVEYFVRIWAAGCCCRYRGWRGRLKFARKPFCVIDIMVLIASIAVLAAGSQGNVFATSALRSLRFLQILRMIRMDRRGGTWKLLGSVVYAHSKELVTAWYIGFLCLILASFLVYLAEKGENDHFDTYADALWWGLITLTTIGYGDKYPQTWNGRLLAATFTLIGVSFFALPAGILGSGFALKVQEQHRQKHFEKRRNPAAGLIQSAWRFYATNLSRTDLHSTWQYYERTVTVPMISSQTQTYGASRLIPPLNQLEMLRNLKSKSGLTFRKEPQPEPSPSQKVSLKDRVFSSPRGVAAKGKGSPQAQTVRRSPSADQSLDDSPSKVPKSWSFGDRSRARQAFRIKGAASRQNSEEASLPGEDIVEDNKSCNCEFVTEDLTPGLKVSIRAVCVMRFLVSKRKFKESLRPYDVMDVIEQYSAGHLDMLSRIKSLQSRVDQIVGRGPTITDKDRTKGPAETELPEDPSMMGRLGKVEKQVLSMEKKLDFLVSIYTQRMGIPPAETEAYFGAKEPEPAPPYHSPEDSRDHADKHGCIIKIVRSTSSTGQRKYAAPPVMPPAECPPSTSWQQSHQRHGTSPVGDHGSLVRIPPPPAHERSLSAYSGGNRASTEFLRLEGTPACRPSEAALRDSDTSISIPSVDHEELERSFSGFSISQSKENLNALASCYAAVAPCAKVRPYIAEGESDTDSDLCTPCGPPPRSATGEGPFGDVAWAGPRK
KCNQ2 pot baseline: recorded beside KCNQ2 pot, whose call it bears; B-score; compound at 10 µM; measured here: initial fluorescence intensity artifact check;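 brightness before thallium and not channel activity; 0 = typical well and far values either way flag optical interference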
An asterisk follows results filed as active. An excerpt; count on the stated rates, not on these rows.

KCNQ2 pot	KCNQ2 pot baseline	compound
0.15	-1.3	O=C(c1n[nH]c2ccccc12)N1CCCCC1
0.03	1.7	Cc1ccccc1-n1ccnc1SCC(=O)NCc1ccco1
25*	0.48*	Cc1cc(Cl)c(S(=O)(=O)N2CCCCCC2)cc1OCC(=O)NC1CCCCC1
0.09	-0.53	O=c1[nH][nH]c(-c2ccccc2)c1C=Nc1ccc(OC(F)(F)F)cc1
0.07	-0.34	CC1CCCCN1CC(=O)c1c[nH]c2ccccc12 (centres undefined)
0.31	-0.47	Cc1cc(C(=O)CN2CC(C)OC(C)C2)c(C)n1-c1ccccc1 (centres undefined)
0.29	-0.05	CC(C)(C)n1c(=O)[nH]c2c(c1=O)CCC2
0.48	-0.8	O=C(NCc1cccnc1)c1cccc(S(=O)(=O)N2CCOCC2)c1
0.67	1.7	COc1cc2c(cc1OC)CN(CC(=O)NC(=O)NCc1ccco1)CC2
0.14	-0.81	COc1cc(NC(=O)CN(C)S(=O)(=O)c2cccs2)cc(OC)c1
1.1	-0.79	CCN=C(NCC)SC1CC(=O)N(c2ccc(OCC)cc2)C1=O (centres undefined)
1.3	1.3	COCCNC(=O)Cn1cnc2c(cnn2-c2ccc(C)cc2)c1=O
0.04	-0.87	CCN(CC)CCNC(=O)Cn1c(-c2ccccn2)nc2ccccc21
1.4	-2.7	COc1ccc(C)cc1NC(=O)COC(=O)Cc1ccc(-c2ccccc2)cc1
1	0	CCN1CCN(c2cc(C)c3cc(NC(=O)CCC(=O)N4CCN(c5ccccc5OC)CC4)ccc3n2)CC1
0.28	0.14	NS(=O)(=O)c1ccc(-c2ccc(/C=N/Nc3ccc(C(=O)O)cc3)o2)cc1
0.62	-0.56	O=C(CN1C(=O)NC2(CCCC2)C1=O)OCc1ccc(Cl)c(Cl)c1
0.62	0.91	O=C(N/N=C/c1cccnc1)C1CCCCC1
0.61	1.4	Cc1ccccc1NC(=O)Cn1c([N+](=O)[O-])cnc1C
0.17	-1.2	O=c1c2ccccc2nnn1CSc1nnc(C2COc3ccccc3O2)n1-c1ccccc1 (centres undefined)
1.1	-0.82	O=C(NC1CCCCCC1)c1cccc(COCC(F)(F)F)c1
0.04	0.28	CCN(CC)S(=O)(=O)c1cccc(C(=O)N[C@@H](C)c2nc3ccccc3[nH]2)c1
2.3	0.34	Cc1ccc(NC(=O)C(C)c2cccc(C(=O)c3ccccc3)c2)cc1 (centres undefined)
0.29	-1.2	COCCCNC(=O)c1ccccc1C(F)(F)F
9*	0.43*	CC(C)(C)C(=O)/C=C/Nc1ccccc1O

An excerpt from above in order of number of heavy atoms, ascending:
KCNQ2 pot	KCNQ2 pot baseline	compound
0.14	-0.81	COc1cc(NC(=O)CN(C)S(=O)(=O)c2cccs2)cc(OC)c1
0.67	1.7	COc1cc2c(cc1OC)CN(CC(=O)NC(=O)NCc1ccco1)CC2
1.4	-2.7	COc1ccc(C)cc1NC(=O)COC(=O)Cc1ccc(-c2ccccc2)cc1

The results go on:
KCNQ2 pot	KCNQ2 pot baseline	compound
1.1	-1.6	O=C(Oc1cccnc1)c1ccc(Cl)c(Cl)c1
0.96	-1.1	CCN(CC(=O)Nc1ccc(NC(C)=O)cc1)C(=O)CCCN1C(=O)c2ccccc2C1=O
1.6	0	O=C(COC(=O)c1cc(=O)c2ccccc2o1)NC1CCCCC1
0.81	-2.1	COc1ccc(N2CCN(C(=S)Nc3ccc(S(N)(=O)=O)cc3)CC2)cc1
3	0.14	O=C(NNS(=O)(=O)c1ccc(F)cc1)c1cnn(-c2ccccc2)c1C(F)(F)F
1	0.08	CCOC(=O)C(=O)NNc1ccc(C)cc1
1.5	0	O=C(NNC(=O)c1ccc(S(=O)(=O)N2CCCCC2)cc1)c1ccc(F)cc1
0.37	-1.1	CCc1nnc(NC(=O)CSc2nc(SC)ns2)s1
0.57	0.21	CC(=O)NCCc1c[nH]c2ccc(OCC(O)CNC(C)(C)C)cc12 (centres undefined)
0.74	-1.7	ClC(Cl)(Cl)c1nc(N/N=C/c2ccncc2)c2ccccc2n1
1.9	-1.4	NC(=O)CC(NC(=O)Cc1ccc(Cl)cc1)c1ccc(NC2CCCCCC2)c([N+](=O)[O-])c1 (centres undefined)
2	-2	Cc1ccc(OC(C)C(=O)Nc2ccc3c(c2)n(C)c(=O)n3C)cc1C (centres undefined)
1.5	-2.2	COc1ccc(N2CCN(C(CNC(=O)C(=O)NCC3CCCO3)c3ccco3)CC2)cc1 (centres undefined)
1.4	0.27	Cc1ccc(Cl)cc1NC(=O)N[C@@H](CC(C)C)C(=O)O
0.2	0.13	O=C1CN(C(=O)c2cccc(F)c2)C(c2ccc(F)cc2)c2cc(F)ccc2N1 (centres undefined)
0.86	-1.1	Cc1ccc2[nH]cc(C(=O)CN3CCN(c4ccccn4)CC3)c2c1
0.5	-0.11	COc1ccc(C2C(C#N)=C(C)NC3=C2C(=O)c2ccccc23)cc1 (centres undefined)
1.3	0.02	O=C(COc1cc2oc(=O)cc(-c3ccccc3)c2cc1Cl)NCCN1CCOCC1
1.1	0.86	COc1ccc(S(=O)(=O)N2CCCC(C(=O)NC3CC3)C2)cc1Cl (centres undefined)
0.87	-0.56	O=c1[nH]c(CCC2CCCC2)nc2ccccc12
1.4	-1.2	NC(=O)COC(=O)c1cccc(S(=O)(=O)N2CCN(c3ccccc3)CC2)c1
0.39	0.89	CCOc1ccccc1NC(=O)C(Sc1nnnn1C)c1ccccc1 (centres undefined)
0.49	2.4	CCOC(=O)C1=C(COc2ccccc2)NC(=O)NC1c1cccc([N+](=O)[O-])c1 (centres undefined)
0.22	0.89	Cc1ccc(Nc2nc(-c3c(C)n(C)n(-c4ccccc4)c3=O)c(C)s2)cc1
0.93	2.4	CCOC(=O)/C(C#N)=C1/CCCCCN1C

Next part; the last 2 above are carried over.
KCNQ2 pot	KCNQ2 pot baseline	compound
0.22	0.89	Cc1ccc(Nc2nc(-c3c(C)n(C)n(-c4ccccc4)c3=O)c(C)s2)cc1
0.93	2.4	CCOC(=O)/C(C#N)=C1/CCCCCN1C
0.18	-2	CCOC(=O)c1cnc2c(-c3ccc(Cl)cc3)cnn2c1C
0.8	-0.55	Cc1nc(Cl)c(C(=O)NC(=O)Nc2cccc(C(F)(F)F)c2)c(C)c1[N+](=O)[O-]
0.9	-1.1	O=C(O)c1cc2nccc(-c3ccc(F)cc3)n2n1
0.01	1.6	c1ccc(-c2cc(NCCN3CCCCC3)c3ccccc3n2)cc1
0.24	-2.3	O=C1N=c2ccc(Br)cc2=C1c1sc(=S)n(NS(=O)(=O)c2ccccc2)c1O
0.03	-1.5	Cc1cc2n(n1)C(c1ccc(O)cc1)Nc1ccccc1-2 (centres undefined)
3	0.95	O=C(NC1CCCC1)c1cc(COc2ccc3ncccc3c2)on1
0.81	0.82	COc1ccc(Cc2nc(-c3ccccn3)no2)cc1OC
0.21	-0.09	CC(C)C[C@H](NC(=O)c1nc[nH]c1C(=O)N1CCNCC1)C(=O)OC(C)(C)C
1.5	-1.8	CCOCCCn1c(=S)[nH]c2cc(C(=O)NCCc3ccc(OC)c(OC)c3)ccc2c1=O
0.7	1.5	O=P(O)(CN1CCCCCC1)CN1CCCCCC1
0.65	-1	Cc1ccc(CN(c2ccc(C(=O)Nc3ccc4c(c3)OCO4)cc2)S(C)(=O)=O)cc1
0.94	-1	CC(=O)Nc1ccc(NC(=O)CCCSc2nc3ccccc3s2)cc1
0.12	0.32	O=C(c1ccc2c(c1)OCO2)N1CCN(S(=O)(=O)c2ccccc2)CC1
0.88	1.3	COC(=O)[C@@H](NC(=O)Nc1ccc(C(C)=O)cc1)C(C)C
0.34	-0.45	CC(C)c1ccc(NC(=O)N2CCC(c3nc4ccccc4o3)CC2)cc1
0.02	2.7	COc1ccc(NC(=O)CS(=O)CC(=O)NCC2OCCc3ccccc32)cc1 (centres undefined)
0.26	-0.04	O=C(NNc1ccccn1)c1ccc(Cl)nc1
0.43	0.85	Cc1ccc(OCC(=O)N(C)Cc2ccccc2)c([N+](=O)[O-])n1
1.3	-0.78	COc1ccc(Cl)c(Cn2c(NCCCN(C)C)nc3c2c(=O)n(C)c(=O)n3C)c1
0.11	0.17	S=c1[nH]ncn1-c1ccccn1
1.1	1.2	COc1cc([N+](=O)[O-])cc(/C=N/N(CCC#N)C(C)=O)c1O
0.72	-0.99	O=C(CNC(=O)c1ccccc1)OCc1cccc(Br)c1
0.49	0.89	CCOc1ccc(CCNC(=O)Nc2ccccc2C)cc1OCC
2.3	-1.8	Cc1cc(C)nc(N2CCN(C(=O)CCC(=O)Nc3nnc(CC(C)C)s3)CC2)n1
0.02	-0.09	Cc1ccc(-c2nc3ccccc3o2)cc1NC(=S)NC(=O)/C=C/c1ccco1
0.19	-0.91	COc1ccc(N(CC(=O)NCC2CCCO2)C(=O)CCC(=O)Nc2cc(C)on2)cc1OC (centres undefined)
3.5	-0.68	O=C(COc1ccc2ccccc2c1CN1CCOCC1)N1CCc2ccccc21
0.48	-2.1	CCC/C(O)=C1\C(=O)CCCC1=NCCc1c(C)[nH]c2ccc(OC)cc12
1.3	-1.1	CCOC(=O)c1c(NC(=S)Nc2ccccc2)sc2c1CCN(C)C2
1.2	0.56	O=C(NCCOc1ccccc1)c1ccccc1NC(=O)C1CCCO1 (centres undefined)
0.74	0.87	COc1cccc(NC(=S)NNC(=O)Cn2nc([N+](=O)[O-])cc2C)c1
2.3	0.47	CCOc1ccc(C(C(=O)NC2CCCC2)N(CCOC)C(=O)CNC(=O)c2ccco2)cc1 (centres undefined)
0.11	0.1	CCN(CC)S(=O)(=O)c1ccc2c(c1)nc(SCC(N)=O)n2-c1ccc(OC)cc1
0.09	1.6	O=C(NCCNC(=O)c1cc(Cl)ccc1Cl)c1ccco1
0.27	2.8	CCC1(CC)NC(=O)N(CC(=O)OC(C)C(=O)Nc2cc([N+](=O)[O-])ccc2OC)C1=O (centres undefined)
0.01	-0.04	COc1cc(OC)c(-c2sc(Nc3ccccc3)n[n+]2-c2ccc(F)cc2)cc1OC
1.3	0.51	CCCCCCCCn1cc(C(C)=O)c(=O)[nH]c1=O
0.01	1.2	CC(=O)NC(CC(=O)c1ccc([N+](=O)[O-])cc1)C(Cl)(Cl)Cl (centres undefined)
0.35	-0.58	COc1cc(CN2CC(=O)N(c3ccc(C)c(C)c3)C2=S)cc(OC)c1OC
0.7	-2.4	CNc1ccc(NC(C)=O)cc1[N+](=O)[O-]
1.7	0.34	COc1cc(C2NC(=O)CCC2[N+](=O)[O-])c(OC)cc1Br (centres undefined)
1.4	-0.03	Clc1ccc(OCc2nc(-c3ccncc3)no2)c(Br)c1
0.58	-0.04	Nn1c(Nc2ccccc2)nc2ccccc2c1=O
0.52	0.96	O=C(COC(=O)/C=C/c1cccs1)NC(c1ccccc1)c1ccccc1
0.68	0.05	Cc1cc(C)cc(OCC(=O)NNC(=O)c2cc(C)[nH]n2)c1
0.03	0.99	CS(=O)(=O)c1ccc(Cl)c(NC(=O)c2cccc(-n3cnnn3)c2)c1
0.35	1.5	O=C(O)c1ccc2c(=O)n3c(nc2c1)/C(=C/c1ccc(F)cc1)CC3
0.52	1.2	Cc1cc(NC(=O)CSc2nnc3c(C)cc4ccccc4n23)no1
0.28	-0.14	CCOC(=O)Nc1ccc2c(c1)Sc1ccccc1N2C(=O)CCN1CCOCC1

An excerpt from above in order of the KCNQ2 pot value, lowest first:
smiles,KCNQ2 pot,KCNQ2 pot baseline
Cc1ccc(-c2nc3ccccc3o2)cc1NC(=S)NC(=O)/C=C/c1ccco1,0.02,-0.09
CS(=O)(=O)c1ccc(Cl)c(NC(=O)c2cccc(-n3cnnn3)c2)c1,0.03,0.99
CCCCCCCCn1cc(C(C)=O)c(=O)[nH]c1=O,1.3,0.51
Clc1ccc(OCc2nc(-c3ccncc3)no2)c(Br)c1,1.4,-0.03

Following part
KCNQ2 pot	KCNQ2 pot baseline	compound
2.7	-0.52	COC(=O)c1sc(NC(=S)NC(=O)c2cc(OC)c(OC)c(OC)c2)nc1C
0.01	0.61	CCCOc1ccc(C2NC(=S)NC(c3ccccc3)=C2C(=O)Nc2ccc(C)cc2)cc1OC (centres undefined)
3.8	3.2	Nc1cc(-c2cccc(F)c2)nn1S(=O)(=O)c1cccc2nsnc12
0.46	0.33	CCOc1ccc(OCCSc2nc3ccccc3n2CC(=O)O)cc1
1.6	-0.87	CC1=C(C(=O)OCC(C)C)C2(O)C(=O)c3ccccc3C2(O)N1 (centres undefined)
0.19	-0.1	Cc1cc(NC(=O)c2ccc([N+](=O)[O-])cc2Cl)ccc1NC(=O)c1ccco1
0.22	-3.8	O=C(O)CC1=C(c2ccc(F)cc2)CCC1=O
0.03	-0.31	COc1ccc2nc(SCC(=O)N3CCNC3=O)[nH]c2c1
0.05	-2.2	COCc1cc(=O)[nH]c(N2CCN(c3ccccc3OC)CC2)n1
0.63	-0.07	O=C(CCS(=O)(=O)c1ccccc1)NC1CCCC1
2	-0.34	CC1CCCN(C(=O)Cc2cccc3ccccc23)C1 (centres undefined)
0.64	-1.9	Cc1cc(C(=O)NC2CCCCC2)c(C)n1-c1ccc(F)cc1
1.2	-1.6	COc1ccccc1/C=C\C(=O)NCC(=O)N/N=C/c1ccc(O)cc1O
0.86	0.05	COc1ccccc1CC(=O)Nc1ccc(-c2noc(COc3ccc(Cl)c(C)c3)n2)cc1
1.1	0.53	c1ccc2c(c1)sc1nnnn12
0.36	0.78	C=CCOc1ccccc1CNc1ccccc1C
0.51	0.19	COc1ccc(NC(=S)NC2CCCCCC2)c(OC)c1
0.03	0.29	COc1ccc(CCN=C(C)c2cc(C)c(C)cc2O)cc1OC

Looked up above.
KCNQ2 pot baseline with Nc1cc(-c2cccc(F)c2)nn1S(=O)(=O)c1cccc2nsnc12 is entered as 3.2
KCNQ2 pot baseline with Cc1cc(NC(=O)c2ccc([N+](=O)[O-])cc2Cl)ccc1NC(=O)c1ccco1 is entered as -0.1

Source: PubChem
